Yeast UUG start – alters start codon recognition fidelity in yeast; activity score, % at 18.7 µM; S. cerevisiae UUG-firefly luciferase reporter, luminescence/redox ratio; hit rate 0.13% among 350,000;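 active means replicate mean at a twofold rise or more, about +100% in these data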;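 further: firefly luciferase made from a UUG start codon reports start codon fidelity; reporter light over untreated wells divided by growth signal over untreated wells; some hits fall short of that in this replicate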
* marks the source's active call; other numbers are inactive results. A portion of the library (hit frequency here may not be typical).

C[C@H](CO)N1C[C@H](C)[C@H](CN(C)Cc2ccc(C(F)(F)F)cc2)Oc2c(NS(=O)(=O)c3ccccc3)cccc2C1=O
  Yeast UUG start: -2
COc1ccc(CN(C)C[C@H]2Oc3ccc(NC(=O)Nc4ccc(F)cc4)cc3CC(=O)N([C@H](C)CO)C[C@@H]2C)cc1
  Yeast UUG start: 0
O=C(CN1CCOCC1)N1CCCCN2[C@H](C1)[C@@H](c1ccc(C#Cc3ccccc3F)cc1)[C@@H]2CO
  Yeast UUG start: 7
COc1ccc(NC(=O)N2CCCCN3[C@H](CO)[C@@H](c4ccc(C#Cc5ccccc5)cc4)[C@@H]3C2)cc1
  Yeast UUG start: -4
O=C(c1cccc(F)c1)N1CCCCN2[C@H](C1)[C@@H](c1ccc(-c3cncnc3)cc1)[C@@H]2CO
  Yeast UUG start: -2
CCC(=O)N1CCCCN2[C@H](CO)[C@@H](c3ccc(-c4cccnc4)cc3)[C@H]2C1
  Yeast UUG start: -15
COc1ccc(C#Cc2cnc3c(c2)C(=O)N([C@H](C)CO)C[C@H](C)[C@H](CN(C)S(=O)(=O)c2ccc(C#N)cc2)O3)cc1OC
  Yeast UUG start: 7
C/C=C/c1ccc([C@@H]2[C@@H](CO)N3CCCCN(C(=O)Nc4cc(F)ccc4F)C[C@H]23)cc1
  Yeast UUG start: 2
COc1ccc(CN(C)C[C@H]2Oc3ccc(NC(=O)CCC(F)(F)F)cc3C(=O)N([C@@H](C)CO)C[C@@H]2C)cc1
  Yeast UUG start: -2
C[C@@H]1CN([C@@H](C)CO)C(=O)c2cccc(NC(=O)NC3CCCCC3)c2O[C@@H]1CN(C)S(=O)(=O)c1cccs1
  Yeast UUG start: 7
O=C(C1CCC1)N1CCCCN2[C@H](CO)[C@H](c3ccc(C#CC4(O)CCCC4)cc3)[C@H]2C1
  Yeast UUG start: 18
COc1ccc(S(=O)(=O)Nc2cccc3c2O[C@H](CN(C)C)[C@@H](C)CN([C@@H](C)CO)C3=O)cc1
  Yeast UUG start: -10
C[C@H]1CN([C@@H](C)CO)C(=O)Cc2cc(NC(=O)NC3CCCCC3)ccc2O[C@@H]1CN(C)C
  Yeast UUG start: -8
C[C@H](CO)N1C[C@H](C)[C@H](CN(C)Cc2ccncc2)Oc2c(NC(=O)c3cnccn3)cccc2C1=O
  Yeast UUG start: 0
O=C(Nc1ccccc1)N1CCCCN2[C@H](CO)[C@@H](c3ccc(C#CC4CC4)cc3)[C@H]2C1
  Yeast UUG start: 15

O=C(c1cccc(F)c1)N1C[C@H]2[C@@H](c3ccccc31)[C@@H](CO)N2C(=O)c1cccc(F)c1
  Yeast UUG start: -6
C/C=C/c1ccc([C@@H]2[C@H](CN(C)S(=O)(=O)c3ccccc3)N[C@@H]2CO)cc1
  Yeast UUG start: -14
CO[C@@H]1CN(C)C(=O)c2ccc(NC(=O)c3ccc4c(c3)OCO4)cc2OC[C@H](C)N(CC2CC2)C[C@H]1C
  Yeast UUG start: -3
C[C@@H]1CN([C@@H](C)CO)C(=O)c2cccc(NS(=O)(=O)c3cccs3)c2O[C@@H]1CN(C)C(=O)Nc1ccc2c(c1)OCO2
  Yeast UUG start: 5
COc1cccc(-c2ccc3n(c2=O)C[C@@H]2[C@@H](CO)[C@H](C(=O)N(C)C)N(C(=O)C4CCC4)[C@H]32)c1
  Yeast UUG start: -9
COc1ccc(-c2ccc([C@H]3[C@@H](CO)N4CCCCN(S(=O)(=O)c5cccs5)C[C@H]34)cc2)cc1
  Yeast UUG start: 7
COc1ccccc1NC(=O)N1CCCCN2[C@H](CO)[C@H](c3ccc(-c4cccc(F)c4)cc3)[C@@H]2C1
  Yeast UUG start: 3
COCC(=O)N1[C@H](CO)[C@H]2c3ccccc3N(C(=O)Nc3ccccc3Cl)C[C@H]21
  Yeast UUG start: -5
C[C@H]1CN([C@@H](C)CO)C(=O)c2c(c3ccccc3n2C)-c2ccccc2CO[C@@H]1CN(C)Cc1ccc(C(=O)O)cc1
  Yeast UUG start: 9
CN1[C@H](CO)[C@@H]2c3ccccc3N(C(=O)C3CCCCC3)C[C@@H]21
  Yeast UUG start: -5
CO[C@H]1CN(C)C(=O)c2ccc(NC(=O)C3CC3)cc2OC[C@@H](C)N(C(=O)C2CCOCC2)C[C@@H]1C
  Yeast UUG start: -5
CC(C)C#Cc1ccc([C@H]2[C@H]3CN(CC4CC4)CCCCN3[C@H]2CO)cc1
  Yeast UUG start: 19
COc1ccc(NC(=O)N(C)C[C@@H]2Oc3ccc(NS(=O)(=O)c4ccc(F)cc4)cc3C(=O)N([C@@H](C)CO)C[C@@H]2C)cc1
  Yeast UUG start: 26
C[C@H]1CN([C@@H](C)CO)C(=O)c2cccc(NS(C)(=O)=O)c2O[C@H]1CN(C)C(=O)Nc1ccc(C(F)(F)F)cc1
  Yeast UUG start: 10
COc1cccc(-c2ccc([C@H]3[C@H]4CN(Cc5cncnc5)CCCCN4[C@H]3CO)cc2)c1
  Yeast UUG start: -10

6 compounds from above, arranged by length of the SMILES, ascending:
O=C(c1cccc(F)c1)N1C[C@H]2[C@@H](c3ccccc31)[C@@H](CO)N2C(=O)c1cccc(F)c1
  Yeast UUG start: -6
COc1ccc(-c2ccc([C@H]3[C@@H](CO)N4CCCCN(S(=O)(=O)c5cccs5)C[C@H]34)cc2)cc1
  Yeast UUG start: 7
CO[C@H]1CN(C)C(=O)c2ccc(NC(=O)C3CC3)cc2OC[C@@H](C)N(C(=O)C2CCOCC2)C[C@@H]1C
  Yeast UUG start: -5
C[C@H]1CN([C@@H](C)CO)C(=O)c2c(c3ccccc3n2C)-c2ccccc2CO[C@@H]1CN(C)Cc1ccc(C(=O)O)cc1
  Yeast UUG start: 9
C[C@H]1CN([C@@H](C)CO)C(=O)c2cccc(NS(C)(=O)=O)c2O[C@H]1CN(C)C(=O)Nc1ccc(C(F)(F)F)cc1
  Yeast UUG start: 10
C[C@@H]1CN([C@@H](C)CO)C(=O)c2cccc(NS(=O)(=O)c3cccs3)c2O[C@@H]1CN(C)C(=O)Nc1ccc2c(c1)OCO2
  Yeast UUG start: 5

Remaining list, next part.
mol | Yeast UUG start
O=C(C[C@H]1CC[C@H]2[C@@H](COC[C@@H](O)CN2Cc2ccc(F)cc2)O1)N1CCc2ccccc2C1 | 8
COc1cccc(S(=O)(=O)N2C[C@@H](O)COC[C@@H]3O[C@H](CC(=O)N4CCN(C)CC4)CC[C@H]32)c1 | 25
CCC(=O)N1C[C@@H](C)[C@@H](OC)CN(C)C(=O)c2cc(NC(=O)COC)ccc2OC[C@H]1C | -8
N#Cc1ccc(-c2ccc3c(c2)[C@H]2[C@H](CCN2C(=O)Cc2ccccc2)[C@H](CO)N3)cc1 | -11
OC[C@@H]1Nc2ccc(-c3cccc(F)c3)cc2[C@H]2[C@@H]1CCN2Cc1ccncc1 | -13
COc1ccc(CN2C[C@H](O)COC[C@H]3O[C@H](CC(=O)N4CCc5ccccc5C4)CC[C@@H]32)cc1 | 4
O=C(C1CC1)N1CC[C@@H]2[C@H](CO)Nc3ccc(Br)cc3[C@@H]21 | 3
O=S(=O)(c1ccccc1)N1CCCCN2[C@@H](CO)[C@H](c3ccc(-c4ccccc4)cc3)[C@@H]2C1 | 6
Cc1noc(C)c1S(=O)(=O)Nc1cccc2c1O[C@H](CN(C)S(=O)(=O)c1ccc(Cl)cc1)[C@H](C)CN([C@@H](C)CO)C2=O | -10
CO[C@H]1CN(C)C(=O)c2cc(NC(=O)Nc3ccccc3F)ccc2OC[C@@H](C)N(CC2CC2)C[C@H]1C | 5
CNC[C@@H]1Oc2ccc(NS(=O)(=O)c3ccc(F)cc3)cc2CC(=O)N([C@@H](C)CO)C[C@H]1C | -1
C[C@H]1CN([C@@H](C)CO)C(=O)c2cc(NC(=O)Cc3ccccc3)ccc2O[C@H]1CN(C)C | -4
CC(C)(O)C#Cc1ccc([C@@H]2[C@@H](CO)N3CCCCN(S(C)(=O)=O)C[C@H]23)cc1 | 14
COc1ccc(CN(C)C[C@H]2Oc3c(NC(=O)Nc4cccc5ccccc45)cccc3C(=O)N([C@H](C)CO)C[C@H]2C)cc1 | 15
COc1ccccc1C#Cc1ccc2c(c1)[C@@H]1[C@@H](CCN1C(=O)c1ccncc1)[C@@H](CO)N2 | -9
C[C@H](CO)N1C[C@H](C)[C@@H](CN(C)Cc2ccncc2)Oc2c(NC(=O)Nc3ccc(C(F)(F)F)cc3)cccc2C1=O | 3
COc1ccc(CN(C)C[C@@H]2Oc3ccc(NS(=O)(=O)c4ccc(F)cc4)cc3CC(=O)N([C@H](C)CO)C[C@H]2C)cc1 | 1
C[C@@H]1CN([C@@H](C)CO)C(=O)c2ccccc2-c2ccccc2CO[C@H]1CN(C)C(=O)Nc1cccc(F)c1 | 13
CCC(=O)N1[C@H](CN(C)C(C)=O)[C@@H](c2ccc(C3=CCCC3)cc2)[C@@H]1CO | 21
CCCNC(=O)N1C[C@H]2[C@@H](c3ccccc31)[C@@H](CO)N2C(=O)C1CCOCC1 | -8
O=C(Nc1ccccc1F)N1CCCCN2[C@@H](CO)[C@@H](c3ccc(-c4cccnc4)cc3)[C@@H]2C1 | 0
C[C@@H]1CN([C@@H](C)CO)C(=O)c2cccc(NC(=O)c3ccc(-c4nccs4)cc3)c2O[C@@H]1CN(C)S(=O)(=O)c1ccc(F)cc1 | -4
CCC(=O)NC[C@H]1[C@H](c2ccccc2)[C@@H](CO)N1C(=O)C1CCC1 | 9
O=C(NC[C@@H]1[C@H](c2ccccc2)[C@H](CO)N1C(=O)Cc1cccnc1)C1CCC1 | 6
COc1ccc(CN2[C@@H]3CN(C(=O)Nc4ccc(F)cc4)c4ccccc4[C@@H]3[C@@H]2CO)cc1 | 14
COCC(=O)N1CCCCN2[C@H](C1)[C@H](c1ccc(-c3ccccc3)cc1)[C@@H]2CO | 13
O=C(C1CCOCC1)N1C[C@@H]2[C@H](c3ccccc31)[C@@H](CO)N2C(=O)c1ccccc1 | -8
COc1ccccc1-c1ccc([C@@H]2[C@@H](CO)N3CCCCN(C(=O)CN4CCOCC4)C[C@@H]23)cc1 | -6
O=C(c1cccc(F)c1)N1CCCCN2[C@H](CO)[C@@H](c3ccc(-c4ccc(F)cc4)cc3)[C@H]2C1 | -16
CCC(=O)NC[C@H]1N[C@H](CO)[C@@H]1c1ccc(C2=CCCC2)cc1 | -10
COc1cccc(S(=O)(=O)N2CCCCN3[C@H](CO)[C@H](c4ccc(-c5ccccc5)cc4)[C@H]3C2)c1 | -5
COCC(=O)N1[C@H](CO)[C@@H](c2ccccc2)[C@H]1CNC(=O)c1ccccn1 | 0
C[C@@H]1CN([C@@H](C)CO)C(=O)CCCn2cc(nn2)CO[C@@H]1CN(C)C(=O)CCCN(C)C | 13
COCC(=O)Nc1ccc2c(c1)OC[C@H](C)N(C(=O)c1ccccc1F)C[C@@H](C)[C@@H](OC)CN(C)C2=O | 14
COC(=O)C[C@H]1C[C@H]2c3cc(NC(=O)Nc4ccccc4F)ccc3O[C@H]2[C@@H](CO)O1 | 3
CN1c2ccc(C3=CCCCC3)cc2[C@@H]2[C@@H](CCN2C(=O)Nc2ccc(F)cc2)[C@@H]1CO | -6
CC=Cc1ccc2n(c1=O)C[C@H]1[C@H](CO)[C@@H](C(=O)NCCc3cn(C)cn3)N(C(=O)C3CC3)[C@@H]21 (mixture of isomers) | -14
CCS(=O)(=O)N1CCCCN2[C@H](CO)[C@H](c3ccc(-c4cccc(C#N)c4)cc3)[C@H]2C1 | -2
Cc1cc(C(=O)Nc2cccc3c2O[C@@H](CN(C)C(=O)NC(C)C)[C@@H](C)CN([C@@H](C)CO)C3=O)n(C)n1 | 7
C[C@@H]1CN([C@@H](C)CO)C(=O)c2cccc(NC(=O)C3CCOCC3)c2O[C@@H]1CN(C)S(=O)(=O)c1ccc(Cl)cc1 | 7
O=C(NC1Cc2ccccc2C1)[C@H]1N[C@H]2c3ccc(C4=CCCC4)c(=O)n3C[C@H]2[C@@H]1CO | -5
CNC(=O)C[C@H]1CC[C@@H]2[C@H](COC[C@@H](O)CN2C(=O)Nc2cccc(OC)c2)O1 | -9
CO[C@H]1CN(C)C(=O)c2cc(NC(=O)c3cnccn3)ccc2OC[C@@H](C)N(C(C)=O)C[C@H]1C | -8
CCCNC(=O)N1[C@H](CNC(=O)c2cccc(F)c2)[C@@H](c2ccccc2)[C@@H]1CO | -16
C[C@@H](O)C#Cc1ccc([C@H]2[C@@H](CO)N3CCCCN(C(=O)c4ccc(F)cc4)C[C@H]23)cc1 | 17
COCC(=O)N1[C@@H]2c3ccc(C4=CCCCC4)c(=O)n3C[C@@H]2[C@@H](CO)[C@@H]1C(=O)N1CCN(C)CC1 | -17
COc1ccc(S(=O)(=O)N2CC[C@@H]3[C@H](CO)Nc4ccc(-c5ccccc5F)cc4[C@@H]32)cc1 | -15
CO[C@H]1CN(C)C(=O)c2cc(NC(C)=O)ccc2OC[C@H](C)N(C(=O)C2CCOCC2)C[C@H]1C | 5
O=C(C[C@@H]1CC[C@H]2[C@@H](COC[C@@H](O)CN2S(=O)(=O)c2ccccc2)O1)Nc1ccc(-c2ccccc2)cc1 | -10
COc1ccc(S(=O)(=O)N(C)C[C@H]2OCc3ccccc3-c3c(n(C)c4ccccc34)C(=O)N([C@@H](C)CO)C[C@@H]2C)cc1 | 8

(list continues)
mol | Yeast UUG start
CCC(=O)N1[C@H](CO)[C@@H]2c3ccccc3N(C(=O)c3ccncc3)C[C@@H]21 | 11
COc1cccc(C(=O)Nc2ccc3c(c2)OC[C@H](C)N(CCc2ccccc2)C[C@@H](C)[C@H](OC)CN(C)C3=O)c1 | 5
O=C(c1cccc(F)c1)N1CCCCN2[C@H](C1)[C@@H](c1ccc(-c3ccncc3)cc1)[C@@H]2CO | -3
O=C(c1ccc2c(c1)OCO2)N1CC[C@@H]2[C@H]1c1cc(-c3ccc(F)cc3)ccc1N[C@@H]2CO | 0
COc1ccc(NC(=O)Nc2cccc3c2O[C@@H](CN(C)Cc2ccc(C(=O)O)cc2)[C@@H](C)CN([C@@H](C)CO)C3=O)cc1 | -7
C[C@@H]1CN([C@H](C)CO)C(=O)c2cc(NS(=O)(=O)c3ccccc3)ccc2O[C@@H]1CN(C)C(=O)NC1CCCCC1 | -9

Fetched one by one from the entries so far, 2 records:
mol | Yeast UUG start
CCC(=O)N1[C@H](CO)[C@@H]2c3ccccc3N(C(=O)c3ccncc3)C[C@@H]21 | 11
COc1cccc(C(=O)Nc2ccc3c(c2)OC[C@H](C)N(CCc2ccccc2)C[C@@H](C)[C@H](OC)CN(C)C3=O)c1 | 5

Assay outcomes from PubChem.
